# Bioassay records from PubChem BioAssay.
# HIV TAR-Tat: HIV-1 TAR-Tat binding disruption | 100,000 compounds, 0.6% hits | HIV-1 TAR RNA, Tat peptide displacement FRET; hits give high values | z-score (test concentration not listed);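 note: score is relative to mean and SD of negative controls; some compounds called inactive have numbers as strong as hits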
# CDC25B CDK2 inh: human CDC25B-CDK2/CyclinA binding inhibition | P30305+P24941 | HTRF CDC25B-CDK2/CyclinA binding, anti-His/anti-Flag; hits give high values | z-score (test concentration not listed) | 94,000 compounds, 0.72% hits | AID 1259370;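 note: score is relative to mean and SD of negative controls; strong numbers were not always called active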
# Active calls of the source: *; · = no result given.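 Rule for the calls: active = z-score from 3 up in half or more of its runs; inactive = the rest.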
# A first look, 17 compounds:
SMILES,HIV TAR-Tat,CDC25B CDK2 inh
COC(=O)c1cc(S(=O)(=O)Nc2ccc(OC)cc2)c[nH]1,2.2,·
CCOc1ccc(NC(=O)N2CCC3(CC2)Nc2cc(F)ccc2-n2cccc23)cc1,0.52,·
Cc1ccc(S(=O)(=O)Nc2ccc(S(=O)(=O)NC(=O)C3CCCCC3)cc2)cc1,·,-1.2
O=C(Nc1ccccc1F)c1ccc([N+](=O)[O-])o1,0.84,1.1
CN(CC(=O)NCc1ccco1)S(=O)(=O)c1ccc2c(c1)c(=O)n(C)c(=O)n2C,·,-1.4
CCc1nnc(SCC(=O)Nc2ccc(OC)c(OC)c2)c2cc3occc3n12,2.7,·
COC(=O)/C=C1/NCCNC1=O,·,-2
Cc1nn(C)c2c1c(C(F)(F)F)cc(=O)n2CC(=O)N1CCCc2ccccc21,0.41,·
CC1=C(c2ccc(C)c(C)c2)S(=O)(=O)NC1=NCc1ccccc1,-1,-1.4
O=C(c1ccc(N2C(=O)CCS2(=O)=O)cc1)N1CCN(c2ncccn2)CC1,0.67,-0.9
CCOC(=O)c1cc(S(=O)(=O)Nc2ccc(F)cc2)cn1C,1.6,-1.6
CCOC(=O)Cn1c(=O)oc2cc(S(=O)(=O)NC3CCCC3)ccc21,·,-0.56
CCc1ccc(S(=O)(=O)Nc2ccc(-c3cn4cccc(C)c4n3)cc2)cc1,-1.1,-3.8
O=C(CSc1n[nH]c(-c2ccccc2)n1)Nc1nccs1,0.66,·
Cn1c(NCc2ccccc2)nc2c1c(=O)n(Cc1ccc(F)cc1)c(=O)n2C,1.8,-0.46
CCN1CCn2c(nc3cccc(Cl)c32)C1,0.19,-0.94
O=C(Nc1ccc(F)c(Cl)c1)Oc1ccccc1,1.9,-0.77

# Results, from the start:
SMILES,HIV TAR-Tat,CDC25B CDK2 inh
COC(=O)c1cc(S(=O)(=O)Nc2ccc(OC)cc2)c[nH]1,2.2,·
CCOc1ccc(NC(=O)N2CCC3(CC2)Nc2cc(F)ccc2-n2cccc23)cc1,0.52,·
Cc1ccc(S(=O)(=O)Nc2ccc(S(=O)(=O)NC(=O)C3CCCCC3)cc2)cc1,·,-1.2
O=C(Nc1ccccc1F)c1ccc([N+](=O)[O-])o1,0.84,1.1
CN(CC(=O)NCc1ccco1)S(=O)(=O)c1ccc2c(c1)c(=O)n(C)c(=O)n2C,·,-1.4
CCc1nnc(SCC(=O)Nc2ccc(OC)c(OC)c2)c2cc3occc3n12,2.7,·
COC(=O)/C=C1/NCCNC1=O,·,-2
Cc1nn(C)c2c1c(C(F)(F)F)cc(=O)n2CC(=O)N1CCCc2ccccc21,0.41,·
CC1=C(c2ccc(C)c(C)c2)S(=O)(=O)NC1=NCc1ccccc1,-1,-1.4
O=C(c1ccc(N2C(=O)CCS2(=O)=O)cc1)N1CCN(c2ncccn2)CC1,0.67,-0.9
CCOC(=O)c1cc(S(=O)(=O)Nc2ccc(F)cc2)cn1C,1.6,-1.6
CCOC(=O)Cn1c(=O)oc2cc(S(=O)(=O)NC3CCCC3)ccc21,·,-0.56
CCc1ccc(S(=O)(=O)Nc2ccc(-c3cn4cccc(C)c4n3)cc2)cc1,-1.1,-3.8
O=C(CSc1n[nH]c(-c2ccccc2)n1)Nc1nccs1,0.66,·
Cn1c(NCc2ccccc2)nc2c1c(=O)n(Cc1ccc(F)cc1)c(=O)n2C,1.8,-0.46
CCN1CCn2c(nc3cccc(Cl)c32)C1,0.19,-0.94
O=C(Nc1ccc(F)c(Cl)c1)Oc1ccccc1,1.9,-0.77
COc1cc(/C=C2/C(=N)N3N=C(C(C)C)SC3=NC2=O)cc(Cl)c1OCCOc1ccccc1,·,-3.9
O=S(=O)(NCc1ccccc1)c1ccc2[nH]c3c(c2c1)CCCCC3,2.5,·
COc1ccc2c(c1)c(=O)oc1c(C)c(OC(C)C(=O)O)ccc12 (stereo not drawn),0.04,-0.33
O=C(NCCN1CCCCC1)C1CCN(c2nnc(N3CCCC3=O)s2)CC1,0.2,·
CCc1nnc(NC(=O)CSc2ncnc3c2oc2ccccc23)s1,·,-4.5
Cn1c(=O)oc2cc(S(=O)(=O)CCC(=O)Nc3ccc(F)cc3)ccc21,1.1,·
Cc1cc(-c2ccc(S(=O)(=O)NCCc3ccccc3)s2)on1,1.5,·
C=CCSc1ncc(Cl)c(C(=O)Nc2nc3ccc(OCC)cc3s2)n1,0.52,0.32
Cc1c(C(=O)N2CCOCC2)oc2ccc3c(c12)C(=O)CC1(CCCCC1)O3,-0.1,-2.7
CCOc1ccc(S(=O)(=O)N2CCCC2C(=O)O)cc1 (stereo not drawn),2.1,-1.6
CN1CCN(Cc2nc3c(c(=O)n(C)c(=O)n3C)n2Cc2ccc(F)cc2)CC1,·,-0.37
Clc1cccc(N2CCN(c3nn4nnnc4c4ccccc34)CC2)c1,0.58,·
COC(=O)c1ccc(-c2nc(-c3cc(C)nc4ccccc34)no2)cc1,-0.32,1.3
Cc1nnsc1C(=O)Nc1ccc(Br)cc1,-0.51,0.88
CCCc1cc(=O)[nH]c(Nc2cc(C)cc(C)c2)n1,2.1,0.76
CCOc1ccc(N(CC(=O)OC)S(=O)(=O)c2c(C)[nH]c(=O)[nH]c2=O)cc1,1.7,·
CCOc1cc(C)c(S(=O)(=O)n2cc(C)nc2CC)cc1C,0.58,-1.4
COc1ccc(C2=CC(c3ccc(N(C)C)cc3)n3nnnc3N2)cc1 (stereo not drawn),-1,0.26
CCc1nn(CCCC(=O)NC(C)CCc2ccco2)c(=O)c2cc3occc3n12 (stereo not drawn),0.42,1.3
Cc1cc(C(=O)Nc2ccc(-c3cnco3)cc2)nn1C,·,-1.1
O=S(=O)(c1ccccc1)c1cnc2ccc(Cl)cc2c1N1CCCC1,0.16,-0.64
C=C1CC2C(CCC3(C)C2CCC3(O)C(C)=O)C2(C)CCC(=O)C=C12 (stereo not drawn),·,-0.9
CC1(C)CC(=O)C2=C(C1)NC(=S)NC2c1ccc(F)cc1 (stereo not drawn),·,0.49
CCOC(=O)[C@@H](N)Cc1ccc(O)c(O)c1,·,-4.3
Cc1n[nH]c(C)c1CC(=O)NC1CCCCC1,0.47,·
COc1ccc2ncc(S(=O)(=O)c3ccc(C)c(F)c3)c(OC)c2c1,0.94,-1.2
CCOC(=O)C1=C(C)NC(=O)NC1C (stereo not drawn),·,-0.36
NC(=S)N/N=C/c1cc(Br)c(O)c(Br)c1,·,-2.3
Cc1ccc(C2C3=C(CCCC3=O)Nc3n[nH]c(-c4ccccc4)c32)cc1 (stereo not drawn),0.51,·
Cc1ccc(NC(=O)CC2S/C(=N\N=C\c3cccc(O)c3)NC2=O)cc1Cl (stereo not drawn),·,-3.5
CN(C)S(=O)(=O)c1ccc2[nH]cc(C#N)c2c1,-0.09,0.93
O=S(=O)(NCCc1nnc2ccc(SCc3ccccc3Cl)nn12)c1ccccc1,1.2,·
CCC(C)NC(=O)C(=O)c1c(C)n(C)c2ccccc12 (stereo not drawn),·,-0.47

# Next part:
SMILES,HIV TAR-Tat,CDC25B CDK2 inh
CCOc1cccc2c1Oc1[nH]c(-c3cccnc3)nc(=S)c1C2,0.51,-2.1
CCOC(=O)c1sc(NCCOCc2ccccc2)nc1C,·,-0.53
COCCc1nnc2n1N=C(c1ccc(Br)cc1)CS2,0.74,-1.2
Cc1ccc(C)c(NS(=O)(=O)c2cc(-c3ccc(=O)[nH]n3)ccc2C)c1,0.69,-1.7
O=c1c(-c2nc3ccccc3s2)coc2cc(O)ccc12,·,-3.2
CCS(=O)(=O)N1CCC2(CC1)OC(=O)C(C)=C2C(=O)NCCC1=CCCCC1,1,·
COc1ccccc1C1C(C(=O)OC2CCCC2)=C(C)NC2=C1C(=O)CC(C)(C)C2 (stereo not drawn),0.71,-1.4
O=C(CCc1nc2cccnc2n1-c1ccccc1)Nc1ccc(Br)cc1,1.7,-2.9
Cc1ccc(NC(=O)c2cc3c(s2)-c2ccsc2CC3)nc1,1.6,·
Cn1c(=O)n(CC(=O)O)c(=O)c2c1nc1n2CCCN1c1ccc(Oc2ccccc2)cc1,2.3,-0.98
COc1ccc(OC)c(C2C(C#N)=C(N)Oc3cc4c(cc32)OCO4)c1 (stereo not drawn),·,-1.4
C/C(=N\OCC(=O)N=Nc1c(O)n(CN2CCN(C)CC2)c2ccccc12)c1ccccc1,·,-1.8
O=S(=O)(c1ccc2c(c1)CCCC2)N1CCn2c(nc3ccccc32)C1,1.3,-1
O=C(Nc1cccc2nsnc12)c1sc2cccc(F)c2c1Cl,-0.51,-0.16
Cc1ccc(CN(Cc2ccco2)C(=O)c2ccc(Br)cc2)o1,0.6,0.97
O=C(NCc1ccccn1)C(=O)NCC(c1ccco1)S(=O)(=O)c1ccccc1 (stereo not drawn),1.7,·
CCS(=O)(=O)N1CCN(C(=O)c2cc(-c3cccs3)[nH]n2)CC1,0.13,·
CCOC(=O)c1c(C)sc2c1Nc1cc(Cl)ccc1S2,-3,0.9
COC(=O)c1ccc(Oc2nc(C)nc3sc4c(c23)CCCC4)cc1,1.1,-1.7
COCCn1cc(C(=O)N2CCN(C)CC2)c2c3ccccc3n(C)c2c1=O,·,-0.28
Cc1c(C(=O)NC2CCCC2)sc2nc3n(c(=O)c12)CCC3,2.2,·
COc1ccc2scc(N3CCC(C(N)=O)CC3)c(=O)c2c1,0.32,·
COc1cc(/C=C2/C(=O)NN(c3ccc(I)cc3)C2=O)cc(Cl)c1O,·,-5.5
O=C1c2ccccc2S(=O)(=O)N1CC(O)COc1ccc2ccccc2c1 (stereo not drawn),·,0.39
CCn1c(=O)cc(N2CCN(c3ccc(F)cc3)CC2)[nH]c1=O,2.4,·
Cc1cc(C)c2c(=O)cc(C(=O)N(Cc3cccs3)C3CCS(=O)(=O)C3)oc2c1 (stereo not drawn),0.02,-0.73
Cn1c(C(=O)N2CCN(c3ccccc3)CC2)cc2sccc21,0.02,-0.21
Cc1ccc(CSc2nc3ncccc3[nH]2)cc1,-0.11,-0.29
CSc1ccc(CNC(=O)c2ccc3c(c2)NC(=O)C2CCCCN32)cc1 (stereo not drawn),0.46,·
Cc1ccccc1-n1cc(-c2ccccc2)c2c(NCc3cccnc3)ncnc21,1.1,-1.3
COc1ccccc1NC(=O)Nc1c[nH]c(=O)[nH]c1=O,1.6,·
COc1cc(NC(=O)c2cc3cc4cc(OC)ccc4nc3o2)cc(OC)c1,0.72,·
COc1ccc(F)cc1S(=O)(=O)NCCc1csc2nc(-c3ccc(F)cc3)nn12,2.1,·
O=C(Cn1cnc2onc(-c3ccc(F)cc3)c2c1=O)N1CCN(Cc2ccc3c(c2)OCO3)CC1,0.53,·
Cc1ccc(C)c(NS(=O)(=O)c2ccc3c4c(cccc24)C(=O)S3)c1,1.1,0.29
NC(=O)C1CCN(C(=O)c2cc3n(n2)C(C(F)(F)F)CC(c2ccco2)N3)CC1 (stereo not drawn),-0.99,0.7
COC(=O)c1n[nH]nc1C(=O)OC,·,0.05
COc1cc(NC(=O)c2cc3ccccc3o2)c(OC)cc1Br,0.88,-5.1
O=C(CC1CCCC1)Nc1nnc2n1CCCS2,4.1,·
Cc1cc(C)cc(NC(=O)CCc2c(C)nc3c(c(C)nn3C(C)(C)C)c2C)c1,-0.33,-2.4
O=C(Nc1nc(-c2ccc(F)cc2)ns1)c1ccc(Cl)cc1,2.5,-2.4
COc1ccc2nc3sc(C(=O)NC4CC4)cc3cc2c1,-0.36,-3.4
CCc1nc2c(sc3nc(C)cc(C)c32)c(=O)o1,-1.6,-0.46
O=C(NC1CC1)C1CCN(S(=O)(=O)c2ccc3[nH]c4c(c3c2)CCCCC4)CC1,1,·
O=C(NCC(c1ccco1)S(=O)(=O)c1cccs1)c1ccc(F)c(F)c1 (stereo not drawn),1.4,·
CC(C)Cc1nnc(NC(=O)c2nn(-c3ccc(Cl)cc3)ccc2=O)s1,-0.57,-0.67
Cc1ccc(-c2nc(-c3cc(Cl)c(Cl)s3)cs2)cc1,·,-2.1
CC1CC(C)CN(c2nc(Nc3cccc(Cl)c3)c3cnn(C)c3n2)C1 (stereo not drawn),2,·
CN(Cc1ccco1)CC(O)c1ccc2cc[nH]c2c1 (stereo not drawn),-0.44,-0.05
COC(=O)C(CO)Nc1ncnc2onc(C)c12 (stereo not drawn),0.09,·

# Further structures.
SMILES,HIV TAR-Tat,CDC25B CDK2 inh
COc1ccc(C2CC(c3c(O)n(C)c(=O)[nH]c3=O)=Nc3ccccc3S2)c(OC)c1 (stereo not drawn),3.2,-2.6
CCOc1ccc(OCC)c(N2C(=O)CCC2(C)C(=O)NC2CCCC2)c1 (stereo not drawn),0.54,-0.08
Cc1occc1-c1nnc(SCC(=O)Nc2ccc(Cl)cc2)o1,3.8,10*
CCOc1ccccc1NC(=O)C(C)Sc1nnc2ccc3ccccc3n12 (stereo not drawn),-0.44,-0.71
CSc1nc(-c2ccccc2)c(C#N)c(N2CCCCC2)n1,0.42,0.7
COc1ccc(S(=O)(=O)Nc2c(F)cc(F)cc2Br)cc1OC,·,-2.3
COC(=O)c1ccccc1NC1c2ccccc2C(=O)N1Cc1ccc2c(c1)OCO2 (stereo not drawn),0.16,-1.9
CCCCN(C)C(=O)Cn1nc(CC)n2c(cc3sc(CC)cc32)c1=O,-0.23,-1.5
COc1ccc(C2C(C#N)=C3N=C(N)c4ccccc4N3C3=C2C(=O)CC(C)(C)C3)cc1OC (stereo not drawn),-3.1,0.25
Cn1cc(CN(C(=O)Nc2ccccc2)C2CCCCCC2)c2ccccc21,·,-0.67
O=C1c2oc3ccc(F)cc3c(=O)c2C(c2cccc(F)c2)N1CCCN1CCOCC1 (stereo not drawn),-0.04,·
CC(C)CNC(=O)Nc1cc2c(cc1N1CCCC1)n(C)c(=O)n2C,0.58,-0.5
O=C(Nc1ccccc1)c1ccc(Cn2nc(N3CCN(c4ccccc4)CC3)ccc2=O)o1,1.2,·
Cc1nn(CC(O)Cn2c(C)c(C)c3ccccc32)c(C)c1Br (stereo not drawn),1.1,-1.2
O=C(c1noc2ncnc(N3CCCC3)c12)N1CCN(c2cccc(Cl)c2)CC1,-1.2,·
O=C(NCc1noc2ccccc12)NC1CC1,-1.6,·
